# Source: PubChem BioAssay (several laboratories)
# BJeLR lethal: BJeLR cell viability loss; BJeLR (HRASV12) viability, CellTiter-Glo ATP luminescence, 48 h; reference of the scale not given here; inhibition, % (no concentration beside the values); hit rate 0.17% among 300,000; AID 1554;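 active = replicate mean above 50%; inconclusive = above 50% but judged a plate artefact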;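 also: 50 nL library stock added to about 25 µL; numbers are from one replicate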
# Bead autofluor: counter-screen for toxin protease inhibitors: compound fluorescence | fluorescence intensity (no concentration beside the values) | hit rate 3.1% among 360,000 | compound autofluorescence counterscreen, microsphere flow cytometry; stronger effect = higher value | AID 624483;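 active = at least 3 SD above the mean of all compounds, about 16000 in these data; inconclusive = too few beads counted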;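 also: 100 nL of 1 mM stock went into each well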
# Sa ugtP lethal: compounds lethal to S. aureus RN4220 ugtP deletion mutant. growth inhibition, % (test concentration not listed). hit rate 0.54% among 330,000. OD600 growth, 16 h; some inactives read as strong as hits;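 active = z-score under -3 and OD600 up to 0.15 on both plates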;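 also: plate controls were untreated wells for no effect and antibiotic for full effect; wells of about 80 µL received 100 nL stock; the first replicate is given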
# PrP UTR inh: inhibition of PrP 5' UTR reporter expression. cell-based PrP 5' UTR mRNA reporter, plate reader. inhibition, % (concentration not given with the values). hit rate 0.35% among 340,000. AID 488862;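 active = every replicate at 50% or more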;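 also: 0 = median of the neutral control wells; tested in H4 reporter cells; numbers are from one replicate; inactives centre near -14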
# Mtb hypoxia inh: inhibitors of hypoxia-regulated fluorescent reporter in Mycobacterium tuberculosis; M. tuberculosis hypoxia-regulated fluorescent reporter, fluorescence; fluorescence inhibition, % (no concentration beside the values); hit rate 0.1% among 300,000;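 active = 35 to 45% if threefold the growth effect, above 45% if 1.5-fold the growth effect; inactive = the rest, general growth blockers included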;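 also: wells of about 50 µL received 100 nL stock; 0% = vehicle wells and 100% = reference inhibitor wells; whole bacteria with a GFP reporter of the hypoxia response; strong numbers were not always called active; many hits fall short of the cut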
# Sa RN4220 lethal: kills Staphylococcus aureus RN4220; S. aureus RN4220 growth, OD600, 16 h; inhibition, % (test concentration not listed); hit rate 0.33% among 330,000; AID 1259311;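 active = z-score of -3 or lower and OD600 up to 0.18 on both plates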;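 also: plate controls were untreated cells for no effect and reference antibiotic for full effect; stock transfer was 100 nL into about 80 µL; one replicate is shown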
# Mtb hypoxia inh growth: recorded beside Mtb hypoxia inh, whose call it bears; growth inhibition, %; measured here: M. tuberculosis growth (absorbance);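 0% = vehicle and 100% = reference antibiotic; read after six days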
# * hit, by the source's call; u = inconclusive; x = not tested or not shown; & = joins results of further samples.
Molecule | Mtb hypoxia inh growth | Bead autofluor | Sa ugtP lethal | BJeLR lethal | PrP UTR inh | Sa RN4220 lethal | Mtb hypoxia inh
Cc1ccc(N2CC(C(=O)OCC(=O)Nc3cc(C)on3)CC2=O)c(C)c1 (stereo not drawn) | x | 3207 | x | 10 | 7 | x | x
O=C1c2ccccc2C(=O)N1c1ncc(Cc2ccc(Cl)cc2)s1 | 9 | 2409 | 3 | x | -52 | 1.4 | 15
COc1ccc(C2CC(=O)c3cnc(Nc4cc(C)cc(C)c4)nc3C2)cc1 (stereo not drawn) | 27 | 10536 | -5 | 7 | -24 | -3.2 | 15
Cc1ccc(NC(=O)C2CCCN(S(=O)(=O)c3c(C)noc3C)C2)c(C)c1 (stereo not drawn) | x | 4498 | -4 | 7 | 8 | -1.5 | x
Cc1ccc2cc(CCNC(=O)C3CCCC3)c(=O)[nH]c2c1 | 12 | 4307 | 5 | 2 | 45 | 1.3 | 11
Cc1ccc(CNC(=O)c2ccc(N3CCC4(CC3)CC(c3ccccc3)=NO4)c(NC(=O)c3cccc(C)c3)c2)cc1 | x | 4025 | x | -7 | -2 | x | x
COc1ccc(CNC(=O)c2cc3c(=O)n4cccc(C)c4nc3n(CC3CCCO3)c2=N)cc1 (stereo not drawn) | 6 | 6426 | -2 | 6 | -1 | 0.4 | 1
Cc1ccc(S(=O)(=O)N2CC=C(C(=O)NC3CC3)CC2)cc1 | 10 | 4378 | 5 | -9 | 1 | -0.1 | 0
Cc1ccc(OCC(=O)OCC(=O)Nc2ccc3c(c2)OCO3)cc1C | 5 | x | 3 | x | -20 | 7.7 | 3
COc1ccc(NC(=O)CNC(=O)Cn2cnc3sc4c(c3c2=O)CCCC4)cc1OC | 1 | 6256 | -6 | 4 | -12 | 4.4 | 14
CCN1C(=O)[C@H]2[C@@H](c3ccc(-c4ccc(F)cc4)cc3)N3CCCC[C@@]3(C(=O)OC)[C@H]2C1=O | x | 3518 | x | 0 | -15 | x | x
O=C(CSc1nnc2ccc(-c3ccco3)nn12)Nc1ccccc1F | -5 | 6150 | 2 | 9 | 11 | 3.0 | -14
Cc1ccc(C)c(S(=O)(=O)N2CCN(C(=O)Cn3c(=O)cnc4ccccc43)CC2)c1 | 7 | 5039 | 12 | -15 | -30 | 3.0 | 7
CCC(Oc1ccccc1)C(=O)NCc1ccc(S(N)(=O)=O)cc1 (stereo not drawn) | 1 | 2447 | -1 | 7 | 1 | 3.9 | 3
FC(F)(F)c1cccc(-c2cc3ccccc3nc2N2CCCC2)c1 | x | 5563 | 17 | -3 | -6 | -8.1 | x
Cc1nc2nc(C)c(CCC(=O)NCc3ccc4c(c3)OCO4)c(C)n2n1 | 10 | 17817* | 1 | 1 | -4 | 0.5 | 4
O=C(NCCc1ccc(F)cc1)C(=O)Nc1cc2c3c(c1)CC(=O)N3CCC2 | -9 | u | 7 | 2 | -9 | 3.6 | 0
COc1ccc(Cc2nc3ccc(C(=O)NCc4cc(C)no4)cc3o2)cc1OC | 8 | 5227 | -5 | -6 | -14 | 4.6 | -5
Cc1ccc(C(=O)Nc2nnc(S(=O)(=O)N3CCOCC3)s2)cc1 | 11 | 6404 | -2 | 5 | -10 | 9.7 | 2
CCc1c(C)[nH]c2c1C(=O)C(CN1CCOCC1)CC2 (stereo not drawn) | 2 | 5924 | -1 | 1 | 57 | 0.5 | 1
O=C(COc1ncnc2ccccc12)N1CCOCC1 | 14 | 3197 | 4 | -13 | -11 | 16 | -1
COc1ccc([N+](=O)[O-])cc1NS(=O)(=O)c1ccccc1 | 0 | 2370 | -6 | 13 | -16 | 9.2 | 2
COc1cc2c(cc1OC)CN(Cc1cc(=O)oc3cc(C)c(C)cc13)CC2 | 9 | 2749 | -2 | -6 | 4 | 4.2 | 3
Cc1cc(NC(=O)CCS(=O)(=O)c2ccc3c(c2)NC(=O)C(C)S3)ccc1Br (stereo not drawn) | -5 | 6459 | -7 | -7 | -20 | 2.9 | -11

# A portion of the results above, as a working copy:
Molecule | Mtb hypoxia inh growth | Bead autofluor | Sa ugtP lethal | BJeLR lethal | PrP UTR inh | Sa RN4220 lethal | Mtb hypoxia inh
Cc1ccc(OCC(=O)OCC(=O)Nc2ccc3c(c2)OCO3)cc1C | 5 | x | 3 | x | -20 | 7.7 | 3
COc1ccc(NC(=O)CNC(=O)Cn2cnc3sc4c(c3c2=O)CCCC4)cc1OC | 1 | 6256 | -6 | 4 | -12 | 4.4 | 14
CCN1C(=O)[C@H]2[C@@H](c3ccc(-c4ccc(F)cc4)cc3)N3CCCC[C@@]3(C(=O)OC)[C@H]2C1=O | x | 3518 | x | 0 | -15 | x | x
O=C(CSc1nnc2ccc(-c3ccco3)nn12)Nc1ccccc1F | -5 | 6150 | 2 | 9 | 11 | 3.0 | -14
Cc1ccc(C)c(S(=O)(=O)N2CCN(C(=O)Cn3c(=O)cnc4ccccc43)CC2)c1 | 7 | 5039 | 12 | -15 | -30 | 3.0 | 7
CCC(Oc1ccccc1)C(=O)NCc1ccc(S(N)(=O)=O)cc1 (stereo not drawn) | 1 | 2447 | -1 | 7 | 1 | 3.9 | 3
FC(F)(F)c1cccc(-c2cc3ccccc3nc2N2CCCC2)c1 | x | 5563 | 17 | -3 | -6 | -8.1 | x
Cc1nc2nc(C)c(CCC(=O)NCc3ccc4c(c3)OCO4)c(C)n2n1 | 10 | 17817* | 1 | 1 | -4 | 0.5 | 4
O=C(NCCc1ccc(F)cc1)C(=O)Nc1cc2c3c(c1)CC(=O)N3CCC2 | -9 | u | 7 | 2 | -9 | 3.6 | 0
COc1ccc(Cc2nc3ccc(C(=O)NCc4cc(C)no4)cc3o2)cc1OC | 8 | 5227 | -5 | -6 | -14 | 4.6 | -5
Cc1ccc(C(=O)Nc2nnc(S(=O)(=O)N3CCOCC3)s2)cc1 | 11 | 6404 | -2 | 5 | -10 | 9.7 | 2
CCc1c(C)[nH]c2c1C(=O)C(CN1CCOCC1)CC2 (stereo not drawn) | 2 | 5924 | -1 | 1 | 57 | 0.5 | 1
O=C(COc1ncnc2ccccc12)N1CCOCC1 | 14 | 3197 | 4 | -13 | -11 | 16 | -1
COc1ccc([N+](=O)[O-])cc1NS(=O)(=O)c1ccccc1 | 0 | 2370 | -6 | 13 | -16 | 9.2 | 2
COc1cc2c(cc1OC)CN(Cc1cc(=O)oc3cc(C)c(C)cc13)CC2 | 9 | 2749 | -2 | -6 | 4 | 4.2 | 3

# Next structures
Molecule | Mtb hypoxia inh growth | Bead autofluor | Sa ugtP lethal | BJeLR lethal | PrP UTR inh | Sa RN4220 lethal | Mtb hypoxia inh
CSc1ccccc1C(=O)NCc1ccccc1C | 9 | 4455 | 15 | -4 | -33 | 7.2 | 13
CC(CN1CCOCC1)OC(=O)c1ccccc1Cl (stereo not drawn) | -10 | 3823 | 3 | 4 | -26 | 3.2 | -3
O=c1[nH]c(C2CCN(S(=O)(=O)c3ccc4c(c3)OCCO4)CC2)nc2c1nnn2Cc1ccccc1 | -5 | 4499 | 10 | -12 | -12 | 6.7 | -2
O=C(Nc1cccnc1Cl)c1cccs1 | 6 | 3682 | 8 | -9 | -38 | 7.4 | 11
CC(=O)Nc1ccc(C2NC(=O)CCC2[N+](=O)[O-])cc1 (stereo not drawn) | 1 | 4087 | 10 | 5 | -15 | 4.7 | 1
Cc1nn(-c2ccccc2)c2sc(C(=O)N(Cc3ccco3)C(C)C(=O)NC(C)(C)C)cc12 (stereo not drawn) | x | 5100 | 13 | 4 | -12 | 4.8 | x
O=C(NCCC1=CCCCC1)C1CCCN(c2nc3ccccc3o2)C1 (stereo not drawn) | 9 | 9800 | -11 | 5 | -39 | 3.0 | 9
Cc1ccc(-c2nn(-c3ccccc3)cc2/C=C(\C#N)C(=O)NCc2ccccc2)cc1 | 5 | 2480 | -8 | 15 | -18 | 4.6 | 5
Cc1noc(C)c1COc1ccc(C(=O)NNC(=O)c2ccccc2)cc1 | 3 | x | 2 | 18 | -48 | 3.3 | 10
Cc1ccc(NS(=O)(=O)c2ccc(C(=O)N3CC(C)CC(C)C3)cc2)cc1 (stereo not drawn) | 2 | u | -4 | -1 | -5 | 1.6 | -8
O=c1[nH]c(Cc2ccc(Cl)cc2)nc2ccccc12 | 5 | 2461 | 10 | -1 | -24 | 0.0 | 0
O=C(COC(=O)c1c2c(nc3ccccc13)CCN(Cc1ccccc1)C2)Nc1c(F)cccc1F | 6 | 8984 | 8 | -6 | -30 | 7.1 | 17
CC(Sc1ccccn1)C(=O)Nc1ccc2c(c1)OCCO2 (stereo not drawn) | 11 | 4919 | 1 | x | -17 | -2.6 | 4
O=C(NN=Cc1ccco1)c1cccc(NC(=O)c2cccc(Cl)c2)c1 | 2 | x | -9 | x | x | 1.5 | 14
C[n+]1ccc(/C=C/c2c[nH]c3ccccc23)cc1 | -5 | 4231 | -7 | 8 | -2 | 0.0 | 5
CC(CCC(=O)NCC(=O)O)C1CCC2C3C(O)CC4CC(O)CC[C@]4(C)C3CC(O)[C@]12C (stereo partly drawn) | -7&16&2&2 | x | x | x | x | -1.7&2.2&1.2&2.8 | -5&4&1&-1
CC(C)CC(COc1ccccc1)N1CCN(CCc2ccccc2)CCC1=O (stereo not drawn) | 9 | x | 3 | x | x | 7.6 | -5
COc1ccc(CNC(=O)C(=O)NCC2OCCN2C(=O)c2ccc(OC)cc2)cc1 (stereo not drawn) | 0 | 6266 | 6 | -12 | -14 | 2.2 | 13
O=C(CSc1nc(-c2ccccc2)c(-c2ccccc2)o1)NC1CCS(=O)(=O)C1 (stereo not drawn) | -1 | 2540 | 3 | -8 | -3 | 2.0 | 6
CCCCC(=O)Nc1sc(C(=O)N(CC)CC)c(C)c1C(=O)OC | 9 | 3869 | 1 | -1 | -8 | 8.4 | 8
C=CCOc1ccc(/C(O)=C2/C(=O)C(=O)N(CCCN3CCOCC3)C2c2ccccc2)cc1 (stereo not drawn) | 7 | 3167 | 0 | 1 | -20 | 3.2 | 0
OCCN(Cc1ccccc1)C(=S)Nc1ccc(Cl)cc1Cl | 10 | 4250 | 18 | -1 | -9 | -4.6 | 18
COc1cccc(CNC(=O)c2ccc(C(=O)NCc3cccc(OC)c3)cc2)c1 | -8 | 5363 | 1 | -8 | -12 | 0.9 | 7
O=C(Cc1ccccc1[N+](=O)[O-])NCc1ccncc1 | 4 | 2579 | -8 | 4 | -3 | 8.0 | 8
CC(C)c1nc(CNC(=O)C2CCC(=O)N(CCc3cccc(F)c3)C2)cs1 (stereo not drawn) | 14 | 5339 | 7 | -3 | 2 | 1.0 | 13
CCC(C)NC(=O)CNC(=S)N(Cc1ccccc1)Cc1cccnc1 (stereo not drawn) | 6 | 8943 | 4 | 1 | -19 | 5.9 | 4
O=C(Cn1nc(C(=O)O)c2ccccc2c1=O)Nc1cccc(Br)c1 | 6 | 5339 | -3 | -6 | -21 | 4.7 | 7
O=S(=O)(Cc1ccccc1Cl)N1CCCCC1 | x | 4640 | -1 | -8 | -15 | 0.5 | x
Cc1nnsc1C(=O)N/N=C/c1ccc(OC(F)(F)F)cc1 | x | 3300 | x | -7 | -24 | x | x
CCCP(=O)(CC(=O)N(CC)CC)c1ccccc1 (stereo not drawn) | x | 2902 | 5 | 10 | -19 | 6.6 | x
COc1ccc(C2CC(=O)C(C=NCCN3CCNCC3)=C(O)C2)cc1OC (stereo not drawn) | 9 | x | 9 | -17 | x | 5.3 | 1
Cc1ccc(-c2csc(NC(=O)Cn3cnc4c3c(=O)n(C)c(=O)n4C)n2)cc1C | x | 4806 | 1 | x | -23 | -2.4 | x
COc1cccc(NC(=O)c2cc(C(=O)Nc3cccc(OC)c3)n(C)n2)c1 | 8 | 2430 | 0 | -7 | -13 | -1.6 | 9
CC1CCCN(S(=O)(=O)c2ccc(NC(=O)CNC3CCCC3)cc2)C1 (stereo not drawn) | x | 5737 | x | 6 | -14 | x | x
COc1ccc(-c2csc(-c3ccccc3)n2)c(OC)c1 | 9 | 3473 | 64 | 4 | -58 | -14 | -1
Cc1ccc(-c2c(C)sc3nc[nH]c(=O)c23)cc1C | 5 | 4110 | -1 | -3 | -19 | 9.2 | 9
Cc1ccc(S(=O)(=O)Nc2ccc(-c3cn4ccc(C)cc4n3)cc2)cc1 | 9 | 1984 | 0 | 8 | -31 | 4.5 | 9
COCCn1c(SCc2nc3ccccc3c(=O)[nH]2)nc2ccccc2c1=O | 9 | 3525 | 7 | -6 | -2 | 13 | 8
CC1Cc2cc(S(=O)(=O)N3CCCCC3C)ccc2N1C(=O)C1CCC1 (stereo not drawn) | -8 | 4837 | 2 | 11 | -9 | 8.3 | 6
S=C(Nc1ccccc1)N1CCN(c2ccccn2)CC1 | -11 | 2132 | 0 | -7 | -23 | 5.9 | -10
